HSV augment – HSV replication enhancement; HSV replication augmentation in cells, fold increase; maximum fold increase; 220,000 tested, 0.005% active;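 active = peak rise of 1.5-fold or more in the series; tested in PC3 cells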;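 note: first round at 10 µM; read as green reporter fluorescence; hits show the peak of a series up to 25 µM; 1 = signal of infected wells without compound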
GALR2 ag – activates the human galanin receptor 2; O43603; GALR2-expressing cells, agonist activation read-out; activation, %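 (tested at 5 µM)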; 140,000 tested, 0.48% active; AID 803;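 active = above mean plus 3 SD of all compounds, about 5% in these data, not always enough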;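 note: 0% = vehicle buffer wells and 100% = reference agonist at full effect; tested in CHO reporter cells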
Target sequence (O43603 whole entry, looked up): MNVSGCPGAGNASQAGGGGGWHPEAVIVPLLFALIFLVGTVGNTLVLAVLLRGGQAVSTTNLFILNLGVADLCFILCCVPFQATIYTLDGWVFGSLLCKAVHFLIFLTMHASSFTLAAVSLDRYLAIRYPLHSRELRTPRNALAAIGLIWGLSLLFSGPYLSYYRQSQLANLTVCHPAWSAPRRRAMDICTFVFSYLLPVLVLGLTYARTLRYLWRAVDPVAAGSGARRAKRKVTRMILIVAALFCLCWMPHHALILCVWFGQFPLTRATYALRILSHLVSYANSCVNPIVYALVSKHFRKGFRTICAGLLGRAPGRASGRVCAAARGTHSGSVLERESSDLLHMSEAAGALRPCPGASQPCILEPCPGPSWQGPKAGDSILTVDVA
PKD1 inh – PKD1 (human) kinase inhibition. Q15139. PKD1 kinase fluorescence polarization assay. inhibition, %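 (about 10 µM by stock and volumes)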. 200,000 tested, 0.056% active;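 active = inhibition of 50% or more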;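 note: controls were vehicle for no effect and a reference inhibitor for full effect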
RGS16-Gao – regulators of human RGS16-Galphao interaction. O15492+P09471. binding response (% of control), % at 10 µM. bead-based flow cytometry RGS16-Galphao binding, fluorescence; actives lie on both sides. 220,000 tested, 0.38% active;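 active = below 25% or above 175%, edge rows of some plates excepted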;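 note: Galphao activated by GDP with aluminum fluoride before binding; 100% = wells without compound and 0% = beads without RGS; some results beyond the cut were filed as inactive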
Target sequence (O15492 whole entry, looked up): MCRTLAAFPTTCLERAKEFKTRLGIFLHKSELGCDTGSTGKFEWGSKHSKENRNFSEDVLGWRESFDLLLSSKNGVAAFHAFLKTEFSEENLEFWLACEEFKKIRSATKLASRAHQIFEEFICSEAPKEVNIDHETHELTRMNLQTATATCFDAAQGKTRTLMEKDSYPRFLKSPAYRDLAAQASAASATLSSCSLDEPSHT
Target sequence (P09471 whole entry, looked up): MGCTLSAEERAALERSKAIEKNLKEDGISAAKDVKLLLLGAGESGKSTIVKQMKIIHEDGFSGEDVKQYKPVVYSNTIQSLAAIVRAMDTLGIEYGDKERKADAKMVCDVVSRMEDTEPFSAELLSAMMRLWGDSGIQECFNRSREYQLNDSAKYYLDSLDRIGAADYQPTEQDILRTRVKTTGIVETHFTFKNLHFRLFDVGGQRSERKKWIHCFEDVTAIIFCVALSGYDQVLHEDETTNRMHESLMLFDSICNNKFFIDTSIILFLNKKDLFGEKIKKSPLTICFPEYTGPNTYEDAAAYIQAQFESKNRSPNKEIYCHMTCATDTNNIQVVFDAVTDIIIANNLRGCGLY
Insulin prom inh – TRM-6 insulin promoter activity inhibition. AID 1273. 130,000 tested, 0.9% active. TRM-6 cells (human fetal islet line), insulin promoter-eGFP reporter, imaging; reporter expression induced with tamoxifen. inhibition, % at 2 µM;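 active = inhibition above the mean plus 3 SD, with well images judged a real hit on visual review, cut at about 60% in these data, passing the limit was not always enough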
Insulin prom inh cell count – also measured in Insulin prom inh; calls as there; normalized cell count, %; measured here: cell count, toxicity; reference of the scale not given here;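 cells exposed to compound for 48 h; stained nuclei by imaging scaled within each plate; lower means fewer cells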
HSV augment primary fold – recorded beside HSV augment, whose call it bears; fold increase; compound at 10 µM; measured here: primary screen fold increase 10 uM; tested in PC3 cells;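 GFP signal in the first replicate; 1 = infected wells without compound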
Starred values were filed as active, the others as inactive; i = inactive; . = no result given. Compounds were not picked by outcome; about 1.3% have a hit in one of these screens.

SMILES | HSV augment | HSV augment primary fold | GALR2 ag | PKD1 inh | RGS16-Gao | Insulin prom inh | Insulin prom inh cell count
c1ccc(Cn2ccnc2SCc2nnc(-c3ccccc3)o2)cc1 | i | 1.1 | -1.4 | 0 | 106 | 50 | 84
COc1cc(O)c(C(CCN2CCN(c3ccccc3)CC2)c2ccc(N(C)C)cc2)c(OC)c1 (configuration not stated) | i | 0.61 | . | . | 108 | . | .
CN(Cc1nc2ccc(F)cc2[nH]1)Cc1c(C(=O)N(C)C)nc2ccc(Cl)cn12 | i | 0.99 | . | -4 | 102 | . | .
NC(=S)NNC(=O)[C@@H]1CCCC[C@@H]1C(=O)O | i | 1.1 | -0.5 | 7 | 100 | 0 | 93
O=C(CSc1nnnn1Cc1ccccc1)NCC(=O)c1ccccc1 | i | 0.88 | -0.4 | -3 | 98 | -5 | 95
COc1cccc(C2c3c(-c4ccccc4O)n[nH]c3C(=O)N2Cc2ccco2)c1 (configuration not stated) | i | 0.73 | . | . | 110 | . | .
CCC(CC)c1nnc(NC(=O)COc2ccc3c(C)cc(=O)oc3c2)s1 | i | 0.86 | -3.3 | -14 | 95 | 50 | 94
C=COCCNC(=O)C1CC(=O)N(c2ccc(C)cc2)C1 (configuration not stated) | i | 0.84 | -4.7 | -6 | 101 | -21 | 138
O=C1[C@H]2C(c3ccccc3)=NN(c3ccccc3)[C@H]2C(=O)N1c1ccccc1 | i | 1.1 | . | 2 | 106 | -93 | 62
C=CCN1C(=O)C2(NNc3ccccc3O2)c2ccccc21 (configuration not stated) | i | 1.1 | -1.4 | -9 | 102 | -103 | 109
O=C(c1ccc(F)cc1)N1CCCC(c2nc(-c3cccs3)no2)C1 (configuration not stated) | i | 1 | . | 0 | 103 | . | .
COc1ccc(C(=O)n2nc(-c3ccc(C)cc3)nc2N)cc1OC | i | 0.98 | -1.2 | 2 | 101 | 54 | 52
Cc1cccc(NC(=S)N(CCCN2CCOCC2)Cc2ccccn2)c1 | i | 1 | -0.2 | -11 | 103 | 0 | 105
O=C(CN1CCOCC1)Nc1ncc(Br)cc1Br | i | 0.89 | -0.4 | 2 | 113 | . | .
Cc1ccc(S(=O)(=O)N2CCOCC2)cc1C(=O)Nc1ccc2c(c1)CCC2 | i | 0.88 | 0.3 | -9 | 112 | -23 | 48
Cc1cc(N2CCN(c3nc(-c4ccc([N+](=O)[O-])cc4)cs3)CC2)c2ccccc2n1 | i | 0.6 | . | -2 | 107 | 50 | 132
CC(OC(=O)C1=COCCO1)C(=O)Nc1ccccc1C#N (configuration not stated) | i | 1.1 | . | -7 | 107 | -5 | 146
COc1ccc(CNC(=O)c2cc(-c3ccco3)on2)cc1 | i | 0.82 | -1.6 | -4 | 99 | -3 | 113
COc1ccc(OCC(=O)OCC(=O)NCc2ccco2)cc1 | i | 0.96 | -1.4 | -2 | 101 | 0 | 115
C/C(CC(=O)Nc1cccc(C(F)(F)F)c1)=N\NC(=O)C(=O)NCC(C)C | i | 1 | . | 3 | 98 | . | .
Cc1ccc(-c2c[n+](Cc3cccc(Cl)c3)c3n2CCC3)cc1 | i | 1 | . | . | 90 | . | .
Fc1ccc(Cn2c(SCc3ccc(F)c(C(F)(F)F)c3)nnc2C(F)(F)F)cc1 | i | 0.82 | -1.4 | -8 | 118 | -75 | 117
O=C(NC(=S)NCC1CCCO1)c1ccc(Br)o1 (configuration not stated) | i | 0.97 | . | 1 | 92 | -42 | 119
O=C(NCCN1CCN(c2ccccc2F)CC1)c1cccn2c(=O)c3ccccc3nc12 | i | 0.7 | 0.7 | 11 | 96 | -38 | 103
CC(C)c1ccccc1N1CC(C(=O)O)CC1=O (configuration not stated) | i | 0.75 | -0.8 | -1 | 108 | 7 | 106
NC(=O)c1ccc(NC(=O)COC(=O)c2c3c(nc4ccccc24)/C(=C\c2ccc4c(c2)OCO4)CCC3)cc1 | . | . | 0.0 | 5 | 100 | . | .
COC(=O)Cc1c(C)c2ccc(OCC(=O)N3CCOCC3)cc2oc1=O | i | 0.92 | -2.5 | -5 | 103 | -30 | 153
COc1ccc(OC)c(S(=O)(=O)Nc2ccc(C(C)=O)cc2)c1 | i | 1.1 | -2.4 | 2 | 100 | 21 | 114
Cc1ccc(NC(=O)C(=O)NCCN2CCN(Cc3ccc([N+](=O)[O-])cc3)CC2)cc1 | i | 1 | -0.7 | 6 | 101 | -10 | 117
O=C(CSc1ccc(Cl)cc1)Nc1ccc(NC(=O)c2ccco2)cc1 | i | 0.83 | -3.4 | -7 | 67 | 4 | 65
Cc1cc(C)c2c(c1)-c1c(ssc1=S)C(C)(C)N2C(=O)CSc1nncn1C | i | 0.92 | -1.0 | 10 | 117 | . | .
CN(C)c1ccc(N2C(=O)CC(c3ccccc3)CC2=O)cc1 | i | 0.96 | . | . | 99 | . | .
C/C(=N\NC(=O)NC1CCCCC1)c1ccco1 | i | 0.87 | . | -4 | 101 | . | .
O=C(Nc1ccccc1C(=O)NCCCn1ccnc1)c1ccc(Cl)cc1Cl | i | 0.98 | -2.3 | -2 | 103 | -289 | 61
Cc1ccc2cc(N)ccc2n1 | i | 1.2 | . | 5 | 103 | . | .
Cc1ccc([C@H]2C(C#N)=C(N)Oc3cc(C)oc(=O)c32)o1 | i | 0.97 | . | -7 | 94 | . | .
CCOc1ccc(NC(=O)C2CCCN(C(=O)NCc3ccccc3)C2)cc1 (configuration not stated) | i | 0.79 | -1.6 | -12 | 112 | -493 | 79
CCC(C)NC(=O)c1ccc2c(c1)N(Cc1ccccc1)C(=O)CS2 (configuration not stated) | i | 0.99 | . | -9 | 101 | 7 | 139
O=C(CCNC(=O)Cn1ccc2ccccc2c1=O)NCCCN1CCN(c2ccccc2F)CC1 | i | 0.9 | -3.1 | -5 | 107 | . | .
O=C(CN1CCCCC1)N1c2ccccc2Sc2ccc(C(F)(F)F)cc21 | i | 0.94 | -0.4 | -3 | -6.8* | -44 | 105
CC(=O)Nc1cc(-c2nn(CC(=O)N3CCCCC3)c(=O)c3ccccc23)ccc1N1CCOCC1 | i | 0.94 | -2.2 | 3 | 105 | -3 | 168
C(=N\Nc1nc(Nc2ccccc2)nc(Nc2ccccc2)n1)/c1ccncc1 | i | 0.78 | . | 2 | 106 | . | .
CCS(=O)(=O)c1ccc2oc(SCC(=O)Nc3ccc(OC)cc3OC)nc2c1 | i | 0.9 | . | -3 | 97 | . | .
COCCCNC(=S)N1CCC(NC(=O)Nc2ccc(C)cc2)CC1 | i | 0.97 | . | -2 | 18 | 23 | 64
COc1cccc(C(=O)CN(C(=O)c2ccc(Cl)c(Cl)c2)N2C(=O)c3ccccc3C2=O)c1 | i | 1.3 | -1.3 | 9 | 83 | . | .
CC(C)C(c1nnnn1Cc1ccccc1)N1CCc2ccccc2C1 (configuration not stated) | i | 0.81 | -2.0 | 1 | 96 | -29 | 98
CC1CCC2C(=O)N(c3ccc(Cc4ccncc4)cc3)C(=O)C2C1 (configuration not stated) | i | 1 | . | 0 | 97 | . | .
COc1ccccc1CNC(=O)C(NC(=O)c1ccccc1)C(C)C (configuration not stated) | i | 1 | . | -4 | 109 | -50 | 157
Cc1ccnc2nc(C(=O)N3CCN(S(=O)(=O)c4ccccc4)CC3)nn12 | i | 0.91 | -0.6 | 7 | 103 | -83 | 104
C=CCNC(=O)c1ccccc1NC(=O)c1ccc(Cl)c(S(=O)(=O)Nc2ccccc2)c1 | i | 0.91 | -2.2 | 2 | 95 | . | .
Cc1cccc(CSc2cn(CC(=O)N3CCOCC3)c3ccccc23)c1 | i | 0.97 | -0.5 | -7 | 103 | . | .
O=C(C1CCC1)N1CCc2cc(S(=O)(=O)Nc3ccc4c(c3)OCO4)ccc21 | i | 1 | -1.6 | -6 | 102 | -8 | 44
O=C(N/N=C/c1c[nH]c2ccccc12)C1CC1c1ccccc1 (configuration not stated) | i | 0.92 | -1.9 | 3 | 106 | -3 | 142
O=C(CCCC(=O)OCC1CCCO1)OCC1CCCO1 (configuration not stated) | i | 0.96 | -0.1 | 4 | 113 | -21 | 69
Cc1cnc(NC(=O)c2sc3ccccc3c2Cl)s1 | i | 0.97 | -2.3 | -10 | 101 | 0 | 108
CCCCN(C)C(=O)C1CCN(Cc2ccc(OCc3ccccc3)cc2)CC1 | i | 0.97 | -2.1 | -1 | 109 | 21 | 40
COc1ccc(-n2cnnc2SCC(=O)NC2CCCc3ccccc32)cc1 (configuration not stated) | i | 0.89 | 0.9 | 2 | 131 | 25 | 63
O=C(O)C1Cc2[nH]cnc2C(c2cccc([N+](=O)[O-])c2)N1 (configuration not stated) | i | 0.52 | . | -4 | 103 | . | .
CC1CCN(c2ccc(C(=O)Nc3ccc4c(c3)OCO4)cc2[N+](=O)[O-])CC1 | i | 0.77 | -1.4 | -15 | 102 | -17 | 140
COc1ccc(Nc2nc(-c3cccs3)nc3ccccc23)c(OC)c1 | i | 0.86 | 1.1 | -9 | 99 | 27 | 80

Brought forward from above: five entries, then new ones.
SMILES | HSV augment | HSV augment primary fold | GALR2 ag | PKD1 inh | RGS16-Gao | Insulin prom inh | Insulin prom inh cell count
CCCCN(C)C(=O)C1CCN(Cc2ccc(OCc3ccccc3)cc2)CC1 | i | 0.97 | -2.1 | -1 | 109 | 21 | 40
COc1ccc(-n2cnnc2SCC(=O)NC2CCCc3ccccc32)cc1 (configuration not stated) | i | 0.89 | 0.9 | 2 | 131 | 25 | 63
O=C(O)C1Cc2[nH]cnc2C(c2cccc([N+](=O)[O-])c2)N1 (configuration not stated) | i | 0.52 | . | -4 | 103 | . | .
CC1CCN(c2ccc(C(=O)Nc3ccc4c(c3)OCO4)cc2[N+](=O)[O-])CC1 | i | 0.77 | -1.4 | -15 | 102 | -17 | 140
COc1ccc(Nc2nc(-c3cccs3)nc3ccccc23)c(OC)c1 | i | 0.86 | 1.1 | -9 | 99 | 27 | 80
COc1ccc(Nc2cc(C)nc3nc(C)nn23)cc1Cl | i | 0.9 | -1.8 | 0 | 105 | . | .
c1ccc(SCc2nc(-c3cccnc3)no2)cc1 | i | 0.8 | -1.1 | 3 | 106 | -203 | 107
CCOC(=O)C1=NN(c2ccccc2)C(=O)/C1=C\c1ccc(N(C)C)cc1 | i | 1 | -1.7 | 4 | 99 | . | .
c1ccc(Cn2nnnc2CN2CCN(Cc3ccc4c(c3)OCO4)CC2)cc1 | i | 0.9 | -2.1 | -4 | 102 | . | .
CCc1cccc(CC)c1NC(=O)COC(=O)Cc1ccsc1 | i | 0.93 | -1.1 | -1 | 105 | . | .
O=C(c1sc2ccccc2c1Cl)N(Cc1ccccc1Cl)C1CCS(=O)(=O)C1 (configuration not stated) | i | 0.63 | -1.5 | -2 | 102 | 9 | 21
Cc1cccc(Nc2nccc(N(C)C)c2C#N)c1 | i | 0.94 | . | -7 | 99 | . | .
Cc1cccc(-n2ncc3c(N)ncnc32)c1 | i | 0.86 | -1.2 | -3 | 103 | . | .
CCOc1ccc(CCNC(=O)CCc2nc(-c3ccc(OC)cc3)no2)cc1OCC | i | 1 | -0.6 | 1 | 100 | 19 | 203
O=C(CNC(=O)c1ccc(Cl)cc1)N/N=C/C=C/c1ccccc1 | i | 1.1 | 0.9 | -10 | 126 | . | .
CC1=C(C(N)=O)C(c2cccc(OCc3ccccc3)c2)n2nnnc2N1 (configuration not stated) | i | 0.98 | -1.7 | 4 | 95 | 31 | 91
COc1ccc(OCC(=O)N/N=C\c2ccco2)cc1 | i | 1 | . | 0 | 90 | . | .
Cc1cc(C)nc(N(C#N)CN2C(=O)c3ccccc3C2=O)n1 | i | 0.85 | -1.1 | -14 | 100 | . | .
Clc1ccc(CCNc2nc3ccccc3s2)cc1 | i | 0.92 | -2.7 | -19 | 100 | -16 | 84
CCOc1ccc2nc(CN3CCN(Cc4ccsc4)C(CCO)C3)ccc2c1 (configuration not stated) | i | 0.93 | . | 3 | 101 | . | .
O=C(Nc1ccc(O)cc1)c1c(O)c2c([nH]c1=O)CCCC2 | i | 0.94 | . | -5 | 101 | . | .
CCOc1ccc2c(=O)c(Oc3ccccc3)c(C)oc2c1 | . | . | -3.6 | -1 | 101 | -4 | 114

Retrieved one by one from the entries so far:
SMILES | HSV augment | HSV augment primary fold | GALR2 ag | PKD1 inh | RGS16-Gao | Insulin prom inh | Insulin prom inh cell count
c1ccc(Cn2nnnc2CN2CCN(Cc3ccc4c(c3)OCO4)CC2)cc1 | i | 0.9 | -2.1 | -4 | 102 | . | .
COc1ccc(OCC(=O)N/N=C\c2ccco2)cc1 | i | 1 | . | 0 | 90 | . | .
Cc1cc(C)nc(N(C#N)CN2C(=O)c3ccccc3C2=O)n1 | i | 0.85 | -1.1 | -14 | 100 | . | .
CCOC(=O)C1=NN(c2ccccc2)C(=O)/C1=C\c1ccc(N(C)C)cc1 | i | 1 | -1.7 | 4 | 99 | . | .

From PubChem
